AF4-AF9 inh: blocks AF4 peptide binding to human AF9 | P42568 | AlphaScreen, biotin-AF4 peptide binding to FLAG-AF9 | inhibition, % at 10 µM | 350,000 compounds, 0.47% hits | AID 651704;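 active means every replicate reaching a set inhibition limit, whatever the replicate mean, cut at about 25% in these data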;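 further: 0% = plate neutral control median and 100% = total signal loss; the record names both 10 and 1 µM as test concentration; the first replicate is given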
Target sequence (P42568 whole entry, looked up): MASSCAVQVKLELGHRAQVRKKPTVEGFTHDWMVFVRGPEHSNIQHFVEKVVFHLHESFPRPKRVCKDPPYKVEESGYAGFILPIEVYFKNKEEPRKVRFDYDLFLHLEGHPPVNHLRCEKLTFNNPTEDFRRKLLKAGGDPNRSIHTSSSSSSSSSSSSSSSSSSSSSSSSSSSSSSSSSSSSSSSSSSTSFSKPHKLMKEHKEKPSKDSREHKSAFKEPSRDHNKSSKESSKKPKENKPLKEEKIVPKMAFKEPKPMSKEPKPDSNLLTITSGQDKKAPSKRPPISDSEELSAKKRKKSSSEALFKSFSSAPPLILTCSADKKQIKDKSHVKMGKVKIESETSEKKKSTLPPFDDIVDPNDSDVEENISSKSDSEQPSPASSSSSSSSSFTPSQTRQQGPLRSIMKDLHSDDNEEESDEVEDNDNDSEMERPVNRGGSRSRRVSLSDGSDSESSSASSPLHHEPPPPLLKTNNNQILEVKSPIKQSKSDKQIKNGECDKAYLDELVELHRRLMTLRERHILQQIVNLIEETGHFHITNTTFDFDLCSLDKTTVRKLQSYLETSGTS
FGF22 binding: shifts melting point of recombinant human FGF22 | Q9HCT0 | recombinant FGF22 thermal shift, SYPRO orange fluorescence; percent of sucrose octasulfate shift, DMSO zero | calls only at 9.99 µM | 340,000 compounds, 1.5% hits | AID 651658;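 active means melting point raised past a set limit in the mean and every replicate; three in four hits are not shown here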
Target sequence (Q9HCT0 whole entry, looked up): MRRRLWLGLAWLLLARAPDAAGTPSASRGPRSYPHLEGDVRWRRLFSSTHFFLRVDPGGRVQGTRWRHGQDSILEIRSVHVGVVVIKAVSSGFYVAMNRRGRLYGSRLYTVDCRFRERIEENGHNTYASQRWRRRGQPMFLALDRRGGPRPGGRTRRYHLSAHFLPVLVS
* marks the source's active call; other numbers are inactive results; i = inactive; / = not tested or not shown; + = active, no number.

Value order – AF4-AF9 inh	FGF22 binding
> COc1ccc2c3c([nH]c2c1)[C@H](CO)N(Cc1ccc(F)cc1)CC31CCN(Cc2ccccn2)CC1
  2.1	i
> COc1ccccc1-c1ccc2n(c1=O)C[C@@H]1[C@@H](CO)[C@H](C(=O)Nc3nccs3)N(CC3CC3)[C@H]21
  2.9	i
> C[C@H](CO)N1C[C@H](C)[C@H](CN(C)C(=O)Nc2ccc3c(c2)OCO3)OCCCC[C@H](C)Oc2ccc(NC(=O)Nc3ccc(F)cc3)cc2C1=O
  -4.2	i
> CCC(=O)N1CC[C@@H]2[C@H]1c1cc(-c3ccccc3F)ccc1N(C)[C@H]2CO
  2.5	i
> CCC(=O)N1[C@H](C(=O)N2CCc3ccccc3C2)[C@@H](CO)[C@@H]2Cn3c(cccc3=O)[C@@H]21
  -1.9	i
> COc1ccc(NC(=O)N2CCCCN3[C@H](CO)[C@H](c4ccc(-c5ccccc5F)cc4)[C@@H]3C2)cc1
  -8.1	i
> Cc1cccc(-c2ccc([C@H]3[C@H](CO)N4CCCCN(S(=O)(=O)c5ccccc5C)C[C@@H]34)cc2)c1
  2.0	i
> C[C@@H]1CN([C@@H](C)CO)C(=O)c2cccc(NC(=O)Nc3ccccc3)c2O[C@H]1CN(C)Cc1ccc(-c2ccccc2)cc1
  2.4	i
> Cc1ccc(-c2ccc3c(c2)O[C@H](CN(C)C(=O)NC(C)C)[C@@H](C)CN([C@@H](C)CO)S3(=O)=O)cc1
  0.8	i
> COCC(=O)N1CCC2(CC1)CN(Cc1cccc(F)c1)[C@@H](CO)c1c2c2ccc(OC)cc2n1C
  -0.1	i

Seven structures from above, arranged by molecular weight, rising.
Value order – AF4-AF9 inh	FGF22 binding
> Cc1cccc(-c2ccc([C@H]3[C@H](CO)N4CCCCN(S(=O)(=O)c5ccccc5C)C[C@@H]34)cc2)c1
  2.0	i
> COc1ccccc1-c1ccc2n(c1=O)C[C@@H]1[C@@H](CO)[C@H](C(=O)Nc3nccs3)N(CC3CC3)[C@H]21
  2.9	i
> COCC(=O)N1CCC2(CC1)CN(Cc1cccc(F)c1)[C@@H](CO)c1c2c2ccc(OC)cc2n1C
  -0.1	i
> COc1ccc2c3c([nH]c2c1)[C@H](CO)N(Cc1ccc(F)cc1)CC31CCN(Cc2ccccn2)CC1
  2.1	i
> Cc1ccc(-c2ccc3c(c2)O[C@H](CN(C)C(=O)NC(C)C)[C@@H](C)CN([C@@H](C)CO)S3(=O)=O)cc1
  0.8	i
> C[C@@H]1CN([C@@H](C)CO)C(=O)c2cccc(NC(=O)Nc3ccccc3)c2O[C@H]1CN(C)Cc1ccc(-c2ccccc2)cc1
  2.4	i
> C[C@H](CO)N1C[C@H](C)[C@H](CN(C)C(=O)Nc2ccc3c(c2)OCO3)OCCCC[C@H](C)Oc2ccc(NC(=O)Nc3ccc(F)cc3)cc2C1=O
  -4.2	i

The listing continues.
Value order – AF4-AF9 inh	FGF22 binding
> CN(C)CC(=O)N[C@@H]1C=C[C@@H](CC(=O)NCc2ccccc2F)O[C@H]1CO
  -3.7	i
> COc1ccc(NC(=O)N(C)C[C@H]2OCCCC[C@@H](C)Oc3ccc(NC(=O)c4ccccc4)cc3C(=O)N([C@@H](C)CO)C[C@H]2C)cc1
  1.8	i
> C[C@H](CO)N1C[C@H](C)[C@H](CN(C)CC2CC2)Oc2ccc(NC(=O)C3CC3)cc2C1=O
  -2.2	i
> CC(=O)N(C)C[C@H]1Oc2cc(C#Cc3cccnc3)ccc2S(=O)(=O)N([C@@H](C)CO)C[C@@H]1C
  -0.6	i
> COc1ccccc1NC(=O)Nc1ccc2c(c1)C(=O)N(C)C[C@@H](OC)[C@H](C)CN(C)[C@@H](C)CO2
  1.2	i
> C[C@H](CO)N1C[C@H](C)[C@H](CN(C)S(=O)(=O)c2ccccc2)Oc2ncc(C#Cc3ccccc3F)cc2C1=O
  2.4	i
> CCCCS(=O)(=O)N1CCCc2nc(-c3ccc(F)cc3)ccc21
  -1.4	/
> O=C(C[C@H]1CC[C@@H]2[C@H](COC[C@@H](O)CN2C(=O)c2cnccn2)O1)NCc1ccc(F)cc1
  -2.2	i
> CCCN(C)C[C@H]1OCCCC[C@@H](C)Oc2ccc(NC(=O)C3CCCCC3)cc2C(=O)N([C@H](C)CO)C[C@@H]1C
  0.6	i
> C[C@H]1CCCCO[C@@H](CN(C)Cc2ccc(C(=O)O)cc2)[C@@H](C)CN([C@@H](C)CO)C(=O)c2cc(NC(=O)c3ccccc3)ccc2O1
  -1.3	i
> O=C(Nc1ccc(Cl)c(Cl)c1)N[C@@H]1CC[C@@H](CCn2cc(C3CCCCC3)nn2)O[C@H]1CO
  1.8	i
> CCCC#Cc1cnc2c(c1)C(=O)N([C@H](C)CO)C[C@@H](C)[C@@H](CN(C)S(=O)(=O)c1ccccc1)O2
  -1.5	i
> Cc1noc(C)c1NC(=O)N(C)C[C@@H]1Oc2ccc(NC(=O)Nc3cccc4ccccc34)cc2C(=O)N([C@@H](C)CO)C[C@H]1C
  3.4	i
> CC(=O)N[C@@H]1CC[C@H](CCNC(=O)C2CC2)O[C@@H]1CO
  -2.2	i
> C[C@H]1CN([C@@H](C)CO)S(=O)(=O)c2ccc(C3=CCCCC3)cc2O[C@@H]1CN(C)C(=O)C1CCC1
  3.2	i
> CCC(=O)N1CC[C@@H]2[C@H]1c1cc(C#Cc3cccnc3)ccc1N[C@@H]2CO
  -8.8	i
> COCC(=O)N(C)C[C@H]1Oc2ncc(C#Cc3ccc(OC)cc3)cc2C(=O)N([C@@H](C)CO)C[C@@H]1C
  -0.2	i
> COCCNC(=O)C[C@H]1C[C@H]2c3cc(NC(=O)c4cccnc4)ccc3O[C@H]2[C@H](CO)O1
  -2.3	i
> CO[C@@H]1CN(C)C(=O)c2ccc(NC(=O)C3CC3)cc2OC[C@@H](C)N(C(=O)NC(C)C)C[C@@H]1C
  -0.3	i
> C[C@@H]1CN([C@@H](C)CO)C(=O)c2cccc(NC(=O)NC3CCCCC3)c2O[C@@H]1CN(C)S(=O)(=O)c1ccccc1
  0.4	i
> COc1ccc(-c2ccc3c(c2)O[C@@H](CN(C)Cc2cccnc2)[C@H](C)CN([C@H](C)CO)S3(=O)=O)cc1
  -1.2	i
> COc1ccc(NC(=O)Nc2ccc3c(c2)C(=O)N([C@@H](C)CO)C[C@@H](C)[C@@H](CN(C)Cc2ccc4c(c2)OCO4)OCCCC[C@H](C)O3)cc1
  3.8	i
> N#Cc1cccc(-c2ccc([C@@H]3[C@@H](CO)N4CCCCN(C(=O)Nc5ccc(F)cc5)C[C@H]34)cc2)c1
  4.7	i
> COC(=O)C[C@@H]1C[C@H]2c3cc(NC(=O)NC4CCCC4)ccc3O[C@H]2[C@@H](CO)O1
  0.1	i
> COc1ccccc1C#Cc1ccc([C@@H]2[C@@H](CO)N3CCCCN(S(C)(=O)=O)C[C@H]23)cc1
  20	i
> COc1ccc(NC(=O)N(C)C[C@H]2Oc3c(NC(=O)c4ccc(-c5nccs5)cc4)cccc3C(=O)N([C@H](C)CO)C[C@H]2C)cc1
  -1.8	i
> CCC(=O)N(C)C[C@@H]1Oc2cc(C#CC3CCCC3)ccc2S(=O)(=O)N([C@@H](C)CO)C[C@@H]1C
  5.4	i
> O=C(C[C@H]1CC[C@H]2[C@@H](COC[C@H](O)CN2CC2CCOCC2)O1)NCC1CCCCC1
  -0.1	+
> C[C@@H]1CCCCO[C@@H](CN(C)C(=O)Nc2ccc3c(c2)OCO3)[C@@H](C)CN([C@H](C)CO)C(=O)c2cc(NC(=O)CCCCCC(=O)Nc3ccccc3N)ccc2O1
  -1.9	i
> COc1ccc(NC(=O)Nc2ccc3c(c2)C(=O)N([C@@H](C)CO)C[C@@H](C)[C@@H](CN(C)S(=O)(=O)c2ccc(Cl)cc2)OCCCC[C@@H](C)O3)cc1
  -0.9	i
> CCCNC(=O)N(C)C[C@@H]1Oc2cc(C#CCC(C)C)ccc2S(=O)(=O)N([C@H](C)CO)C[C@H]1C
  4.5	i
> Cc1noc(C)c1S(=O)(=O)Nc1ccc2c(c1)CC(=O)N([C@@H](C)CO)C[C@H](C)[C@@H](CN(C)CC1CC1)O2
  -4.4	i
> C[C@H](CO)N1C[C@H](C)[C@@H](CN(C)Cc2ccccc2)Oc2ncc(-c3ccccc3F)cc2C1=O
  -4.0	i
> O=C(c1ccncc1)N1C[C@@H]2[C@H](c3ccccc31)[C@H](CO)N2C(=O)Nc1ccccc1Cl
  0.3	i
> C[C@H]1CN([C@@H](C)CO)C(=O)c2cccc(NC(=O)c3cnccn3)c2O[C@H]1CN(C)Cc1ccc(C(=O)O)cc1
  -1.5	i
> COC(=O)C[C@H]1C[C@@H]2c3cc(NC(=O)Nc4ccccc4F)ccc3O[C@@H]2[C@H](CO)O1
  -0.2	i
> COc1ccc(NC(=O)N(C)C[C@@H]2Oc3ccc(NC(=O)Nc4ccc5c(c4)OCO5)cc3C(=O)N([C@@H](C)CO)C[C@H]2C)cc1
  3.0	i
> Cc1ccccc1CN1[C@@H](C)[C@H](c2ccccc2)Oc2cccc(N3CCCC(C)C3)c2S1(=O)=O (some centres not stated)
  -0.2	i
> C[C@H]1CCCCO[C@H](CN(C)Cc2ccc(C(=O)O)cc2)[C@@H](C)CN([C@@H](C)CO)C(=O)c2cc(NC(=O)Nc3ccc4c(c3)OCO4)ccc2O1
  0.8	i
> Cc1ccc(S(=O)(=O)N(C)C[C@@H]2Oc3ccc(NC(=O)CCN4CCOCC4)cc3C(=O)N([C@H](C)CO)C[C@H]2C)cc1
  -1.7	i
> Cc1ccc2cccc(OC(=O)c3cccnc3Oc3ccccc3)c2n1
  6.4	i
> O=C(CC1CC1)N1CC[C@@H]2[C@@H](CO)Nc3ccc(-c4cccc(F)c4)cc3[C@@H]21
  2.0	i
> C[C@@H]1CN([C@H](C)CO)C(=O)c2cccc(NC(=O)NC3CCCCC3)c2O[C@H]1CN(C)C(=O)NC1CCCCC1
  -1.9	i
> COCC#Cc1ccc2c(c1)O[C@H](CN(C)Cc1ccccn1)[C@@H](C)CN([C@H](C)CO)S2(=O)=O
  0.6	i
> COC(=O)C[C@H]1CC[C@@H]2[C@@H](COc3ccc(NC(=O)c4ccccc4F)cc3C(=O)N2C)O1
  -3.5	i
> CC(=O)N1[C@H](CO)[C@H]2c3ccccc3N(S(=O)(=O)c3ccccc3C)C[C@H]21
  2.0	i
> O=C(Nc1ccccc1F)N1CCCCN2[C@H](C1)[C@@H](c1ccc(C#Cc3cccnc3)cc1)[C@@H]2CO
  -7.6	i
> Cc1ccc(S(=O)(=O)N(C)C[C@@H]2OCCCC[C@H](C)Oc3ccc(NC(=O)Nc4ccccc4)cc3C(=O)N([C@@H](C)CO)C[C@H]2C)cc1
  2.7	i
> COCC(=O)N(C)C[C@@H]1Oc2cc(C#CCC(C)C)ccc2S(=O)(=O)N([C@@H](C)CO)C[C@H]1C
  3.2	i
> CO[C@@H](CN(C)Cc1nccs1)[C@@H](C)CN([C@@H](C)CO)S(=O)(=O)c1ccc(C)cc1
  0.3	i

(continued)
Value order – AF4-AF9 inh	FGF22 binding
> O=C(C[C@H]1C[C@H]2c3cc(NC(=O)NC4CCCC4)ccc3O[C@H]2[C@@H](CO)O1)NCc1ccc2c(c1)OCO2
  -1.5	i
> O=C(Nc1ccccc1)N1CCCCN2[C@@H](CO)[C@H](c3ccc(Br)cc3)[C@@H]2C1
  1.2	i
> C[C@@H]1CN([C@@H](C)CO)C(=O)c2cc(NC(=O)Nc3cccc4ccccc34)ccc2O[C@@H]1CN(C)Cc1ccc(C(=O)O)cc1
  2.8	i
> COc1ccc(NC(=O)Nc2ccc3c(c2)C(=O)N([C@@H](C)CO)C[C@H](C)[C@@H](CN(C)S(=O)(=O)c2ccc(C)cc2)OCCCC[C@@H](C)O3)cc1
  -7.6	i
> C[C@@H]1CCCCO[C@H](CN(C)C(=O)CCC(F)(F)F)[C@H](C)CN([C@@H](C)CO)C(=O)c2cc(N(C)C)ccc2O1
  -6.3	i
> C[C@@H]1CN([C@@H](C)CO)C(=O)Cc2cc(NC(=O)Nc3ccc4c(c3)OCO4)ccc2O[C@@H]1CN(C)Cc1ccccc1
  3.8	i
> CC(=O)N(C)C[C@H]1Oc2ncc(-c3ccc(C)cc3)cc2C(=O)N([C@H](C)CO)C[C@H]1C
  -3.2	i
> Cc1noc(C)c1NC(=O)Nc1ccc2c(c1)CC(=O)N([C@@H](C)CO)C[C@H](C)[C@@H](CN(C)S(=O)(=O)c1c(C)noc1C)O2
  -0.7	i
> C[C@@H]1CN([C@H](C)CO)S(=O)(=O)c2ccc(C#CC3CCCC3)cc2O[C@H]1CN(C)C(=O)Nc1cc(F)ccc1F
  4.7	i
> C[C@H](CO)N1C[C@H](C)[C@H](CN(C)C(=O)c2cnccn2)Oc2ncc(C#Cc3ccccn3)cc2C1=O
  -4.8	i
> CO[C@H]1CN(C)C(=O)c2cc(NS(=O)(=O)c3cn(C)cn3)ccc2OC[C@@H](C)N(CC2CC2)C[C@@H]1C
  -0.2	i
> C[C@@H]1CCCCO[C@@H](CN(C)C(=O)Nc2ccc3c(c2)OCO3)[C@H](C)CN([C@H](C)CO)C(=O)c2cc(NC(=O)CCCN(C)C)ccc2O1
  4.6	i
> COCCNC(=O)C[C@@H]1CC[C@@H]2[C@H](COc3ccc(NC(=O)Cc4ccccc4)cc3C(=O)N2C)O1
  0.2	i
> O=C(C[C@H]1CC[C@@H]2[C@H](COC[C@H](O)CN2S(=O)(=O)c2cccc(F)c2)O1)NCCCN1CCOCC1
  0.0	i
> CC(C)NC(=O)N[C@@H]1C=C[C@H](CC(=O)O)O[C@@H]1CO
  -1.0	i
> COc1ccc2c3c([nH]c2c1)[C@@H](CO)N(Cc1nccs1)CC31CN(Cc2nccs2)C1
  2.8	i
> C=CCN=C1NC(c2ccc(Cl)cc2)C(C(=O)OC)=C(C)N1C (configuration not stated)
  -1.8	/

Source: PubChem BioAssay

A portion of the library (hit frequency here may not be typical).
